FGF22 binding: binders of human FGF22 protein, primary screen, FGF22 synaptogenesis inhibitor project, biophysical, thermal shift, single point; recombinant FGF22 thermal shift, SYPRO orange fluorescence; percent of sucrose octasulfate shift, DMSO zero; hit rate 1.5% among 340,000; AID 651658, 2012; calls only at 9.99 µM; Fibroblast growth factor 22 (Homo sapiens), Q9HCT0;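 active = melting point raised past a set limit in the mean and every replicate; three in four hits are not shown here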
Target sequence (Q9HCT0 whole entry, looked up): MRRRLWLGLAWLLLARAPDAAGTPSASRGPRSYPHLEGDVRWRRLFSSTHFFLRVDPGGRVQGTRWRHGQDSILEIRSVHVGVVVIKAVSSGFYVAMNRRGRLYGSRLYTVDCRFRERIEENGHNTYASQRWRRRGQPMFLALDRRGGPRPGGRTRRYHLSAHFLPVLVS
Beta cell apopt: inhibitors of cytokine-induced beta cell apoptosis, primary screen, luminescence. INS-1E cytokine-induced death, ATP luminescence, 48 h; percent of positive-control rescue, neutral wells zero. hit rate 0.8% among 300,000. protection from apoptosis, % (test concentration not listed);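 active = all replicates at 75% or more, or half of them and the mean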;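 note: 0% = cytokine-treated negative control wells and 100% = positive control rescue; higher means more ATP so stronger rescue from cytokine killing; wells of about 40 µL received 100 nL stock; the first replicate is given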
E coli growth: E. coli growth inhibition, primary screen, OD600 | AID 1053175, 2014 | Escherichia coli growth, 23 h; active compounds read low | hit rate 0.21% among 330,000 | OD600 absorbance (concentration not given with the values);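 active = OD600 absorbance below the run mean of sample wells minus 3.6 SD, in any replicate, cut at about 0.56 in these data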;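 note: stock transfer was 300 nL into about 60 µL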
T cruzi repl: inhibitors of intracellular T. cruzi growth, primary screen, luminescence, NIH3T3 host cells; T. cruzi beta-gal in NIH3T3, 90 h; inhibition, % (concentration not given with the values); hit rate 1.4% among 300,000;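 active = mean inhibition across valid replicates above about 55%, limit read from the data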;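 note: signal also drops with host cell toxicity which is not excluded here; 0% = plate median of DMSO wells and 100% = zero luminescence signal; higher percent means less beta-gal luminescence so fewer parasites; stock transfer was 50 nL into about 50 µL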
A1 inh: caspase 3/7 activation in MEF A1-2A-BIM cells, primary screen, A1 inhibitor project, cell-based, luminescence, HTS | Caspase-Glo 3/7 luminescence, 3 h; percent of clofoctol response, vehicle zero | hit rate 0.066% among 330,000 | caspase activation, % (no concentration beside the values);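 active = over half of replicate activation scores above 10%, or exactly half above 10 with the replicate mean above 10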;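 note: wells of about 30 µL received 50 nL stock; many hits fall short of the cut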
AF4-AF9 inh: inhibitors of AF4 peptide binding to AF9, primary screen, biochemical, AlphaScreen, biotin-AF4 peptide, FLAG-AF9, single point; Protein AF-9 (Homo sapiens), P42568; inhibition, % at 10 µM; hit rate 0.47% among 350,000; AID 651704, 2012;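 active = every replicate reaching a set inhibition limit, whatever the replicate mean, cut at about 25% in these data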;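 note: 0% = plate neutral control median and 100% = total signal loss; the record names both 10 and 1 µM as test concentration; the first replicate is given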
Target sequence (P42568 whole entry, looked up): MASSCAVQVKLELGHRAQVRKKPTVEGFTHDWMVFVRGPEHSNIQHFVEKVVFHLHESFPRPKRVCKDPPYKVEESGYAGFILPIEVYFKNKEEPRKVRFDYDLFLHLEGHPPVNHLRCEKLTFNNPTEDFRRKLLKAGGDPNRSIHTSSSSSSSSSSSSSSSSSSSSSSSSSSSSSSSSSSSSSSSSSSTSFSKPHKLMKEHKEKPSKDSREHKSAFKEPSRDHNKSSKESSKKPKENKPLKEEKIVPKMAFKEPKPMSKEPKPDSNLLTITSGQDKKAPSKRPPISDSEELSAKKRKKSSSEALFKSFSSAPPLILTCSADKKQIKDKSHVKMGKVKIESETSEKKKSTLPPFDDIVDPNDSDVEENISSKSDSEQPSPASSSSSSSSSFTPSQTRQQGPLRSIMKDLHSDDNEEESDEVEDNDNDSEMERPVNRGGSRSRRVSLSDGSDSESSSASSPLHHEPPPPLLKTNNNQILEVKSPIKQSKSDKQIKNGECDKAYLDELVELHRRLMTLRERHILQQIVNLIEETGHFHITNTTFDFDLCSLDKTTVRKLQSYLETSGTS
UCH37 DUB inh: inhibitors of human UCH37 deubiquitinase, primary screen, biochemical, Ub-AMC cleavage, fluorescence; Ubiquitin carboxyl-terminal hydrolase isozyme L5 (Homo sapiens), Q9Y5K5; hit rate 0.33% among 330,000; AID 588478, 2011; inhibition, % (concentration not given with the values); purified proteasome/UCH37;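 active = mean of two replicates above 20%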;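 note: 0% = compound-free wells with enzyme and 100% = wells lacking proteasome; stock transfer was 100 nL into about 20 µL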
Target sequence (Q9Y5K5 whole entry, looked up): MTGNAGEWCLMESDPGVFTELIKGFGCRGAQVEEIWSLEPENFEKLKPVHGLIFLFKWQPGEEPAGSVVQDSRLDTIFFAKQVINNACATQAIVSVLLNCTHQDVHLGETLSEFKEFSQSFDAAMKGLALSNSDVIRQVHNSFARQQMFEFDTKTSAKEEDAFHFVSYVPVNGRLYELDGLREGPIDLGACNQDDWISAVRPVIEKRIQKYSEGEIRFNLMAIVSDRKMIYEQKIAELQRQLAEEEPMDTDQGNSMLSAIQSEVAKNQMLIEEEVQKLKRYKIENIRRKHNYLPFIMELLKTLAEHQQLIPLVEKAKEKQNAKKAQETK
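Material: Human UCH37 enzyme supplied as purified proteasome complex | Schedule: 30 min compound-proteasome preincubation then 25 min substrate reaction, room temperature | Detection: AMC fluorescence from Ub-AMC cleavage, excitation 355 nm, emission 460 nm | Benchmarks: Wells without proteasome as full block, compound-free enzyme plus substrate as uninhibited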
Ecoli rRNA inh: reduced GFP signal of wild-type E. coli, primary screen, bacterial rRNA inhibitor project, GFP/RFP fluorescence, OD600, single point | hit rate 1.6% among 350,000 | AID 720706, 2013 | GFP signal change (wild-type ribosome), % (concentration not given with the values) | E. coli WT GFP vs humanized-ribosome RFP mutants, 24 h; active compounds read low; DMSO median 0, no signal -100;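 active = significant combined selectivity score with lowered wild-type GFP, culture density cut under 30%, mutant RFP and density less affected; inactive = any of these conditions unmet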; note: one replicate is shown; some compounds called inactive have numbers as strong as hits
Ecoli rRNA inh OD600: recorded beside Ecoli rRNA inh, whose call it bears; OD600 change, %; measured here: OD600 growth;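 optical density of the mix in the first replicate; 0 = DMSO median and -100 = no signal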
Ecoli rRNA inh RFP: further read-out of Ecoli rRNA inh, marked with its call; RFP signal change, %; measured here: RFP humanized mutant strains;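 first replicate; 0 = DMSO median and -100 = no signal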
* = called active by the depositor; i = inactive; / = not tested or not shown; + = active, no number. Some of the compounds tested. The share of hits here may be higher or lower than overall.

SMILES	FGF22 binding	Beta cell apopt	E coli growth	T cruzi repl	A1 inh	AF4-AF9 inh	UCH37 DUB inh	Ecoli rRNA inh	Ecoli rRNA inh OD600	Ecoli rRNA inh RFP
COc1ccc(OCC(=O)Nc2ccc(N3CCN(C(=O)c4ccco4)CC3)cc2)cc1	i	1	0.71	-3	0.1	-0.3	-1.9	7	20	1.1
CCC(c1ccccc1)c1nc(-c2cccnc2)no1 (centres undefined)	i	-2	0.7	-2	-0.1	0.3	3.2	2	14	-2.0
O=C(CCS(=O)(=O)c1ccc(Br)cc1)Nc1ccc(Br)cc1F	/	-5	0.72	-29	-1.1	/	0.8	/	/	/
N#C/C(=C\C=C\c1ccccc1[N+](=O)[O-])C(=O)NC1CCCCC1	/	-15	0.7	-19	0.2	/	-2.3	/	/	/
Cc1ccc(S(=O)(=O)N(C)C)cc1NC(=O)C(C)OC(=O)C1CCC1 (centres undefined)	i	-6	0.68	/	1.1	0.8	2.7	9	13	-1.3
Cc1cccc(C(=O)NC(C(=O)Nc2ccccc2N2CCOCC2)C(C)C)c1 (centres undefined)	/	-3	0.7	0	0.0	-0.8	3.9	26	21	1.2
COc1cnc(SC(C)C)[nH]c1=O	/	0	0.69	17	0.0	-0.8	-1.3	0	6	-5.7
CC(C)C(=O)NNC(=O)c1ccccn1	i	0	0.69	-2	0.3	-17	3.7	-5	-2	0.1
CC1(C)c2ccccc2C(=O)c2ccccc21	i	/	0.69	/	/	4.3	0.4	-22*	-13*	-2.2*
COc1cc(/C=C/C(=O)OCC(=O)NC(=O)NC(C)C)cc(OC)c1OC	i	-2	/	-14	-0.4	1.5	-13	-2	-5	1.5
COC(=O)C1=C(N)OC2=C(C(=O)CC(C)(C)C2)C1c1cccnc1 (centres undefined)	/	/	0.7	-8	-0.1	/	4.1	/	/	/
Cc1ccc(NC(=O)c2c(NC(=O)CCC(=O)O)sc3c2CCCCC3)cc1	i	2	0.68	-9	-0.2	-5.8	3.9	-1	-11	4.7
CCNC(=S)Nc1cccc(S(=O)(=O)Nc2ccccc2OC)c1	i	1	0.68	-10	0.2	9.3	1.6	-2	-5	-3.6
O=C(CNC(=O)c1sc2ccccc2c1Cl)NCc1ccc(F)cc1	i	0	0.65	3	-0.2	-3.2	0.9	8	10	2.4
O=C(NC1CCSc2ccccc21)c1cccc(Cl)c1 (centres undefined)	i	1	0.69	28	0.9	-7.0	1.3	5	11	-1.0
CCn1c(SCC(=O)Nc2nc(C)cs2)nnc1-c1ccoc1C	/	1	0.68	5	-1.1	/	-1.4	/	/	/
COc1ccc(C(=O)NCc2nnc(SCC(=O)NC3CCCC3)o2)cc1	i	4	0.66	-2	0.3	-3.6	-0.5	7	11	0.2
CCN(C(=O)CSc1cccc[n+]1[O-])C1CCCCC1	i	-4	0.68	/	0.0	-21	0.9	0	6	-2.1
CCOc1ccc(-c2cnc3ccccc3n2)cc1	i	-5	0.62	8	-7.5	/	-15	17	5	2.9
CC1CN(C(=O)c2cc3ccccc3cc2O)CC(C)O1 (centres undefined)	i	-8	0.68	-8	0.3	-0.3	-2.9	3	5	-2.9
NC(=O)C1CCN(C(=O)OCc2ccccc2)CC1	/	0	0.68	-17	-0.4	/	0.0	/	/	/
COc1cc(OC)c(S(=O)(=O)NC(C)C)cc1C(=O)O	i	2	0.7	-10	0.4	-30	2.8	4	-7	-0.3
O=C(CCCCCNC(=O)c1ccccc1)N/N=C/c1ccccc1	i	-1	/	5	-0.3	-2.9	/	0	-4	2.2
COc1ccc(/C=C/c2c(-c3ccc(OC)cc3)oc3cccnc23)cc1	i	-3	0.82	-1	-0.7	-12	5.0	6	-3	17
O=C(c1ccc([N+](=O)[O-])cc1)N1CCN(C2=NS(=O)(=O)c3ccccc32)CC1	i	0	0.71	-1	-0.3	-1.3	4.5	-7	0	-0.4
Cc1ccc(-n2ncc3c(SCC(=O)Nc4cc(C)on4)ncnc32)c(C)c1	i	-1	0.74	-6	-1.1	-2.0	5.1	7	16	-3.9
Cc1ccc(NS(=O)(=O)c2cccc(C(=O)n3ncc(C#N)c3N)c2)c(C)c1	/	0	0.68	-9	2.4	/	0.7	/	/	/
CCCCn1c(-c2ccc(C(C)(C)C)cc2)nc2cc3[nH]c(=O)c(C(C)C)nc3cc21	i	-1	0.72	14	0.6	2.9	-17	/	/	/
COc1ccc(-c2nc(CN3CCC(C(=O)N4CCc5ccccc54)CC3)c(C)o2)cc1OC	i	-1	0.77	11	-0.7	6.5	3.8	-8	4	0.2
CN1C(=O)C(O)(CC(=O)c2ccncc2)c2ccccc21 (centres undefined)	/	-11	0.7	8	0.7	/	-1.4	/	/	/
CCSc1nc(-c2ccccc2)cc(=O)[nH]1	i	-3	0.65	/	-0.2	-0.5	0.3	0	-1	-2.2
Cc1cc(NC(=O)CSc2nc(=O)n(CCCN(C)C)c3c2CCCC3)no1	/	-12	0.65	-11	0.2	0.0	4.3	4	5	-2.4
COc1ccc(C2CC(c3ccccc3)=NN2C(=O)COC(=O)c2cnc(Cl)c(Cl)c2)cc1 (centres undefined)	/	-6	0.7	4	0.5	/	1.2	/	/	/
O=C(N/N=C/c1ccc(Br)s1)c1ccco1	i	-2	/	-15	-2.4	/	/	4	9	-4.2
Fc1ccc(Cn2cc(C(=S)N3CCOCC3)c3ccccc32)cc1	i	-5	0.72	-2	-1.7	13	4.8	-26*	-5.1*	0.2*
COc1ccc(-c2c(NC(=O)c3ccco3)oc3ccc(Cl)cc3c2=O)cc1	i	/	0.71	-16	1.5	-2.1	6.7	2	3	-0.2
COCC(=O)N1CCC(Oc2ccc(C(=O)NCCc3ncccc3C)cc2)CC1	i	-6	0.7	1	-0.5	-2.2	5.6	5	2	1.5
Cc1ccc(NC(=O)N(CCC#N)Cc2ccccc2)cc1	i	8	0.66	-3	-0.1	-1.3	0.7	8	7	0.7
CCOC(=O)[C@H]1[C@H]2COc3ccc(C)cc3[C@@H]2N2C(=O)c3cc(OC)c(OC)cc3NC(=O)[C@@]12C	i	-6	/	/	1.2	2.8	6.9	6	-6	9.8
Cc1c(Cl)cccc1NC(=O)CNC(=O)c1ccco1	i	/	0.66	-2	0.2	4.6	1.0	6	7	-3.3
Cc1[nH]c2ccccc2c1C(=O)CSc1nccc(=O)[nH]1	i	-6	0.67	-3	0.5	1.4	4.9	5	8	-2.9
COc1ccc(C(=O)Oc2cc3c4c(c2)C(C)=CC(C)(C)N4C(=O)C3=O)cc1OC	/	9	0.65	-2	-1.5	/	4.3	/	/	/
O=C(NCC1CCCN(C(=O)NCc2ccccc2)C1)c1ccc2c(c1)OCO2 (centres undefined)	i	2	0.74	-9	-0.1	-2.5	6.0	1	12	6.2
C/C(CC(=O)Nc1ccc2c(c1)OCCO2)=N\NC(=O)c1ccccc1F	i	2	/	-3	-1.0	-1.4	/	3	-5	3.4
Cc1sc2ncnc(OCC(=O)NC(C)C)c2c1C	/	-1	0.71	-22	0.1	/	0.5	/	/	/
Cc1ccc(-c2csc(N(CCO)CCCn3c(C(F)(F)F)nc4cc(C(F)(F)F)ccc43)n2)cc1	i	-10	/	-5	0.1	-14	-3.2	-2	8	48
COc1ccc(CC(=O)N/N=C(\C)CC(=O)Nc2cccc(F)c2)cc1	i	-7	/	12	0.5	-4.5	/	0	-1	7.1
CCCCCN(C(=O)CCC(=O)OCc1ccc(C(C)C)cc1)c1c(N)n(CCCC)c(=O)[nH]c1=O	i	/	0.71	31	1.3	-0.5	2.2	-4	3	-1.4
O=C(NCCc1ccccc1Cl)C1CCC(=O)N(CCCc2ccccc2)C1 (centres undefined)	i	3	0.7	-10	-0.4	0.0	3.4	-19	-17	0.7
Cc1nn(C)cc1CNC(=O)C1CCC(=O)N(CC2CCCCC2)C1 (centres undefined)	i	-2	0.67	-7	-0.5	-1.5	2.0	8	7	-0.8
O=C(O)c1ccccc1NC(=O)c1cc(-c2ccccc2)nc2ccccc12	+	/	0.62	-4	-1.0	-3.8	3.6	-30	-51	-1.9
O=C(Nc1ncn[nH]1)c1ccc(Cl)c(Cl)c1	i	/	0.67	/	/	-1.3	1.2	-1	6	0.8
O=C(C1CCCCC1)N1CCN(S(=O)(=O)c2ccc(Cl)cc2)CC1	/	6	0.75	-3	-0.5	/	4.5	/	/	/
O=C(NC1CCCC1)C(c1ccncc1)N(C(=O)c1csnn1)c1ccccc1F (centres undefined)	i	-7	0.69	-11	-0.3	4.9	1.9	10	6	-0.3
Cc1cccc(N2C(=O)N3[C@H](c4ccc(F)cc4)[C@@H]4C(=O)N(C5CCCCC5)C(=O)[C@@H]4[C@]3(Cc3ccc(Cl)cc3)C2=O)c1	i	/	/	46	-0.1	-1.6	0.0	3	5	-7.9
CN(C)C(=O)COC(=O)c1cccc(S(=O)(=O)Nc2ccc(OCc3ccccc3)cc2)c1	i	-1	0.67	-10	0.9	-1.5	-2.3	-37	-45	-8.5
O=c1[nH]c(NCCCO)nc2c1C1(CCCC1)Cc1ccccc1-2	i	104*	0.69	-6	0.3	-0.3	i	-37	-45	4.8
COc1ccc(CCC2(C)NC(=O)N(C(C)C(=O)Nc3ccccc3F)C2=O)cc1 (centres undefined)	i	-1	0.67	/	-0.5	-6.8	-0.1	-5	-7	-3.5
CC1(C)Cc2c(c(N3CCOCC3)nc3snc(N)c23)CO1	/	67	0.68	44	0.4	/	0.8	6	8	5.5
Cc1nn(C(C)C(=O)NCCCN2CCCCCC2)c(=O)c2cc3sccc3n12 (centres undefined)	i	-8	0.63	-1	0.0	15	0.8	6	20	8.8
Cc1cc(C)nc(SCCn2c(N(C)Cc3ccccc3)nc3c2c(=O)n(C)c(=O)n3C)n1	i	4	0.68	11	0.8	-10	0.2	-1	0	-4.5

Single records, from the list above. Order of screens: FGF22 binding	Beta cell apopt	E coli growth	T cruzi repl	A1 inh	AF4-AF9 inh	UCH37 DUB inh	Ecoli rRNA inh	Ecoli rRNA inh OD600	Ecoli rRNA inh RFP
Cc1ccc(NC(=O)c2c(NC(=O)CCC(=O)O)sc3c2CCCCC3)cc1 across the screens: i	2	0.68	-9	-0.2	-5.8	3.9	-1	-11	4.7
O=C(NCCc1ccccc1Cl)C1CCC(=O)N(CCCc2ccccc2)C1 (centres undefined) across the screens: i	3	0.7	-10	-0.4	0.0	3.4	-19	-17	0.7
